Source: PubChem (National Center for Advancing Translational Sciences (NCATS))
VDR inhibitor: Inhibitors of the vitamin D receptor (VDR): qHTS | VDR-SRC2-3 peptide fluorescence polarization, 2 h | Potency, µM, without a hit: max response, negative = inhibition, actives largely listed as inhibitors | actives 0.93% (n = 400,000) | AID 504847, 2011; active = well fitted inhibition curve with a large enough effect; inconclusive = small, poorly fitted or top-dose-only effect, or another doubt; inactive = no such curve, though single readings can be large or run the other way; note: series mostly up to about 120 µM
Target sequence (P11473 whole entry, looked up): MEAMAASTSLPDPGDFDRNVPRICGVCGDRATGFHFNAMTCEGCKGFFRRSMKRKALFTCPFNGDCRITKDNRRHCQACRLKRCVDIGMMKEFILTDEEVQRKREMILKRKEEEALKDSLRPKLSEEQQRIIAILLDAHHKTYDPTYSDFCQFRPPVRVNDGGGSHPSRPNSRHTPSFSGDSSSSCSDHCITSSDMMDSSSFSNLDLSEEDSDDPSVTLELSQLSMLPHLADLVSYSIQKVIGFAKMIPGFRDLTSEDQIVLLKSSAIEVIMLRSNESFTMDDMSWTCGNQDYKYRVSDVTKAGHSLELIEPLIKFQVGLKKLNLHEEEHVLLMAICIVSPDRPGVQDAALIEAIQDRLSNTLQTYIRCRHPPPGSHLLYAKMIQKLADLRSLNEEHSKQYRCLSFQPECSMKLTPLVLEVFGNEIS
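Fluorescence polarization assay measuring small-molecule disruption of VDR binding to the coregulator peptide SRC2-3. Compounds were pin-transferred (23 nl) into the reagent mix and incubated 2 h at room temperature before reading.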
Active calls of the source: *; ? = inconclusive. % is set by controls: 0 for no effect and ±100 for the full control effect; potency is the fitted concentration of half-maximal effect.

VDR inhibitor	Structure
-3.1%	O=C(c1cccc(Cl)c1)N1CCN(c2ccc(N3CCOCC3)nn2)CC1
-20.8%	CC1=Nc2ccccc2/C1=C\c1sc(Nc2ccc(C)cc2)nc1O
10.3%	Cc1ccc(/C=N/NC(=O)CSCc2ccc(Cl)cc2)cc1
6.3%	COc1cc(NC(=O)CC(C)n2nc(C)cc2C)cc(OC)c1 (stereo not drawn)
-3.7%	NS(=O)(=O)c1ccc(NC(=O)CN2CCc3ccccc32)cc1
-13.9%	CCN1C(=O)C2(C(C#N)=C(N)Oc3n[nH]c(-c4ccc(Cl)cc4)c32)c2ccccc21 (stereo not drawn)
14.0%	Cc1cccc(CN2CCN(CC(=O)Nc3c(C)cccc3C)S2(=O)=O)c1
9.5%	O=C(CN1C(=O)c2ccccc2S1(=O)=O)NCc1ccc2c(c1)OCO2
0.2%	O=C1c2ccccc2C(=O)N1CSc1ncccn1
-11.5%	CCOc1cc(C(=S)N2CCOCC2)ccc1OS(=O)(=O)c1ccc(Br)cc1
1.6%	c1ccc(-c2nc(NCc3ccco3)c3ccccc3n2)cc1
-9.1%	CCOc1cc(/C=N/NC(=O)C2CC2)ccc1OC(C)C
-6.4%	CC(C)S(=O)(=O)c1csc(C(=O)NN)c1-n1cccc1
-12.2%	CCC(=O)OC1(C)C(=O)C=C2C=C(CCCCNC(=O)OC(C)(C)C)OC=C2C1=O (stereo not drawn)
-6.4%	NS(=O)(=O)c1cccc(NC(=O)C(Cc2ccccc2)NC(=O)c2ccccc2)c1 (stereo not drawn)
-4.2%	CC[N+](C)(C)CC/C=C1/c2ccccc2Sc2ccc(Cl)cc21
7.5%	Cc1nn2c(-c3cccc(NC(=O)c4ccco4)c3)nnc2c2ccccc12
-5.9%	CC(C)NS(=O)(=O)c1ccc(NCCCn2ccnc2)c([N+](=O)[O-])c1
-1.6%	Cc1cccc(NC(=O)C2CCCCN2S(=O)(=O)c2ccccc2)c1C (stereo not drawn)
-8.5%	N#Cc1cnc(SCC(=O)N2CCCCC2)nc1N
-8.9%	CC(C)(C)OC(=O)N1CCC(C(=O)Nc2ccc(C(=O)NC3CC3)cc2)CC1
-1.9%	COc1ccc(CCNC(=O)Cn2nnc(-c3cccc(C(F)(F)F)c3)n2)cc1OC
3.8%	CCc1ccc(C(=O)NNC(=O)CN2C(=O)NC(CC)(c3ccccc3)C2=O)cc1 (stereo not drawn)
-3.7%	CCOc1ccc(CCNC(=O)c2ccc(=O)[nH]c2)cc1OCC
-7.0%	CCOC(=O)c1ccc2[nH]c(C)c(C)c2c1
0.6%	COc1cc(NC(=O)c2cccnc2)c(OC)cc1NC(=O)c1ccc(Br)cc1
3.2%	CC(C)N(C(=O)Cn1cc(S(=O)(=O)Cc2ccc(C(F)(F)F)cc2)c2ccccc21)C(C)C
0.8%	CCOc1ccc(C(=O)NCC2(c3ccccc3)CCOCC2)cc1
5.4%	COC(=O)C1=C(C)N(C(C)c2ccccc2)C(=O)C1 (stereo not drawn)
?	CCCc1cc(=O)[nH]c(SCC(=O)c2c[nH]c3ccccc23)n1
-8.5%	Cc1ccc(NCc2nnc(SCC(=O)N3c4ccccc4Sc4ccccc43)o2)c(C)c1
-25.3%	CCc1cccc(NC(=O)CSc2nnc(Cc3ccc(OC)cc3)c(=O)[nH]2)c1
17.6%	Cc1ccc2[nH]c3c(NCc4ccccc4)ncnc3c2c1
9.3%	CC(NC(=O)C1CCC(C)(C(=O)O)C1(C)C)c1ccccc1 (stereo not drawn)
1.2%	COc1cc(NC(=S)NC(=O)c2c(OC)cccc2OC)ccc1NC(=O)c1cccs1
-6.9%	NC(=O)CC(NC(=O)Cc1ccc(Br)cc1)c1ccc(NCc2cc(F)ccc2F)c([N+](=O)[O-])c1 (stereo not drawn)
-9.0%	Cc1cccc(C)c1NC(=O)/C(=C/c1ccco1)c1ccccc1
20.2%	Cc1ccc(CN2CCN(/N=C/c3ccc(Cl)c([N+](=O)[O-])c3)CC2)cc1
1.4%	Cc1cccc(Nc2nc(N)nc(CSc3nccc(C)n3)n2)c1
-9.1%	Cc1cc(NC(=O)CCC(=O)N(Cc2cccnc2)C(C(=O)NC(C)(C)C)c2ccccc2Cl)no1 (stereo not drawn)

Fetched one by one from the entries so far:
VDR inhibitor	Structure
?	CCCc1cc(=O)[nH]c(SCC(=O)c2c[nH]c3ccccc23)n1
9.3%	CC(NC(=O)C1CCC(C)(C(=O)O)C1(C)C)c1ccccc1 (stereo not drawn)
3.8%	CCc1ccc(C(=O)NNC(=O)CN2C(=O)NC(CC)(c3ccccc3)C2=O)cc1 (stereo not drawn)
1.2%	COc1cc(NC(=S)NC(=O)c2c(OC)cccc2OC)ccc1NC(=O)c1cccs1

Continued.
VDR inhibitor	Structure
-1.5%	O=C(c1ccc(COc2ccccc2Br)o1)N1CCCCCC1
-0.8%	COC(=O)c1oc(-c2ccc(Cl)cc2)nc1C
-6.5%	COc1ccc(-c2ccc(/C=C3\C(=O)N(c4ccccc4)N=C3c3ccccc3)o2)c([N+](=O)[O-])c1
-2.6%	CCN(CC(=O)Nc1ccccc1OC)C(=O)COc1ccc(C#N)cc1
7.7%	O=C(CSc1nc(-c2ccccc2)cs1)N1CCc2ccccc21
-3.8%	CSc1ncccc1C(=O)N1CCCC(CCC(=O)NCc2ccc(F)c(F)c2)C1 (stereo not drawn)
-6.2%	O=C(CNc1ccc(Cl)cc1)NNC(=S)NCc1ccccc1
-2.0%	O=C(NC1CCCCC1)c1cc(-c2ccc(O)cc2)on1
4.1%	CC1CCCCC1N=C1NC(C)(C)CS1 (stereo not drawn)
12.3%	Cc1ccc2c(c1)N(C(=O)N1CCC(C(=O)NCc3ccccc3C)CC1)CC(C)O2 (stereo not drawn)
24.8%	CNC(=O)CN1C(=O)NC(c2ccccc2)(c2ccccc2)C1=O
-11.1%	O=C(NCC(=O)N1CCN(c2ccccc2)CC1)c1ccc(Br)o1
8.3%	CCC(=O)N1CCc2cc(Br)cc(S(=O)(=O)N3CCN(C(=O)c4ccco4)CC3)c21
-6.9%	Cc1ccc2oc(C(=O)N(Cc3sccc3C)C3CCS(=O)(=O)C3)c(C)c2c1 (stereo not drawn)
-10.4%	N#CCCN(C(=O)COC(=O)c1ccc(S(=O)(=O)N2CCCC2)cc1)c1cccc(Cl)c1
-6.3%	O=C(Nc1nnc(-c2ccccc2F)s1)C1CCCO1 (stereo not drawn)
-1.8%	Cc1nn(-c2ccccc2)c(C)c1/C=N/NC(=O)c1cccs1
-17.4%	CC(NCCC(Cc1ccccc1)c1ccco1)c1ccccc1 (stereo not drawn)
-6.7%	Cc1ccc(C)c(NC(=O)CN(C)C(=O)c2ccccc2OCc2ccc(Cl)cc2)c1
10.2%	COc1ccc(C(C(=O)NC2CCCC2)N(C(=O)c2ccco2)c2cccc(C(C)=O)c2)cc1OC (stereo not drawn)
1.5%	Cc1ccc(CN2CC(=O)N3[C@H]4c5cc(C)ccc5OC[C@@H]4[C@H](c4ccccc4)[C@]3(C)C2=O)cc1
-3.2%	O=C1CC(Nc2ccc(N3CCOCC3)cc2)C(=O)N1CCc1ccccc1 (stereo not drawn)
11.6%	CC1CCN(S(=O)(=O)c2ccc3c(c2)N(CC(=O)Nc2ccc(F)c(Cl)c2)C(=O)CO3)CC1
-6.6%	Cc1cc(C)n(CC(=O)N2c3ccccc3Sc3ccc(C(F)(F)F)cc32)n1
3.8%	NC1(C(=O)O)CCCC1
-0.9%	Cc1cccnc1CCNC(=O)CCc1nnc(-c2ccccc2)o1
-0.9%	O=S(=O)(c1ccccc1OC(F)(F)F)N1CCN(c2ccnc3cc(Cl)ccc23)CC1
11.8%	Cc1ccccc1Nc1sc(C(=O)c2ccccc2)c(N)c1S(C)(=O)=O
15.1%	O=C(Cn1c(=O)c(=O)n(Cc2ccccc2)c2ccc(Cl)cc21)Nc1ccc(F)cc1F
-11.5%	CC(/C=C1\SC(=S)N(NC(=O)c2ccccc2C)C1=O)=C\c1ccccc1
3.8%	Cc1ccccc1OCC(=O)OCC(=O)NCC1CCCO1 (stereo not drawn)
-9.2%	Cc1ccc(Cl)c(NC(=O)CSc2n[nH]c(=O)n2C2CC2)c1Cl
2.9%	Cc1ccc(C)c(OC(=O)c2cccnc2Cl)c1C
-2.6%	O=C(COc1ccc2ccccc2c1)NCCc1ccc2c(c1)OCCO2
6.9%	COc1cccc(CN2CCN(C3CCOCC3)CC2CCO)c1 (stereo not drawn)
17.9%	CCNc1nc(NCC)nc(N2CC(=O)N(CC(=O)OCC)C2=N)n1
89.1µM*	COc1cc(C(=O)ON=C2C(C)=CC(=O)C=C2C)cc(OC)c1OC
-21.4%	O=C(COC(=O)c1ccco1)Nc1ccccc1[N+](=O)[O-]
9.3%	CCOc1cc(N2CCOCC2)c(OCC)cc1NC(=O)c1cc(S(=O)(=O)N2CCOCC2)ccc1Cl
-9.1%	Nc1nc(N)nc(-c2ccc(Cl)cc2)n1
0.7%	COCCn1cnc2c1c(=O)n(CC(=O)OCC(=O)NCC(F)(F)F)c(=O)n2Cc1ccccc1
-23.7%	CC(=O)C1CCCN(C(=O)c2ccc3oc(CCc4ccccc4)nc3c2)C1 (stereo not drawn)
12.6%	C=CCn1c(=NC(=O)C2CC2)sc2cc(NC(C)=O)ccc21
14.2%	NC(=O)c1ccccc1NC(=O)CCn1c(=S)oc2ccccc21
7.94µM*	CS(=O)(=O)c1nc(-c2ccc(F)cc2)cc(C(F)(F)F)n1
-14.5%	COc1ccc(/C=N/n2c(=O)[nH]c3c([nH]c4ccc(Br)cc43)c2=O)cc1CN1CCOCC1
1.7%	COc1ccc(C2C(C(=O)N3CCCC3)CC(=O)N2c2ccc(OC)cc2)cc1 (stereo not drawn)
1.6%	O=C(OCC(=O)c1c[nH]c2ccccc12)C1=COCCO1
3.1%	COc1ccc(Br)cc1CN(C)CC(=O)Nc1cc(Cl)ccc1Cl
0.4%	Cc1ccc(N2CC(C(=O)NCc3ccco3)CC2=O)cc1Cl (stereo not drawn)
11.2%	CC1CN(S(=O)(=O)c2cccc(C(=O)Nc3cc(Cl)ccc3N3CCOCC3)c2)CC(C)O1 (stereo not drawn)
1.7%	O=C(COC(=O)Cc1ccccc1F)NCc1ccc(Cl)cc1
-13.7%	C[C@H](O)[C@@H]1C(=O)N2CCc3ccc(-c4ccccc4)cc3[C@@H]2C[C@@H]1N(C)C(=O)Nc1cc(Cl)cc(Cl)c1
-0.8%	CC1CCCCN1CCCNC(=O)c1cc(Sc2cccc(Cl)c2)nc2ccccc12 (stereo not drawn)
-4.8%	COc1ccc(CNC(=O)c2cccc(C)c2[N+](=O)[O-])cc1
7.4%	O=S1(=O)N=C(N(CCO)/N=C/c2ccccc2)c2ccccc21
14.1%	O=c1ccn(Cc2ccccc2)c(=O)n1Cc1ccccc1
-19.1%	CC(C)CC(=O)O/N=C1\C(=O)N(c2ccccc2)c2ccccc21
-1.2%	CC(=O)c1ccc(NC(=O)c2cn(-c3ccccc3)nc2-c2ccncc2)cc1
-0.6%	O=C(COC(=O)c1cc[n+]([O-])cc1)NCc1ccccc1Cl

An excerpt from above in order of the VDR inhibitor value, rising.
structure	VDR inhibitor
CC(=O)C1CCCN(C(=O)c2ccc3oc(CCc4ccccc4)nc3c2)C1 (stereo not drawn)	-23.7%
CC(C)CC(=O)O/N=C1\C(=O)N(c2ccccc2)c2ccccc21	-19.1%
CC1CCCCN1CCCNC(=O)c1cc(Sc2cccc(Cl)c2)nc2ccccc12 (stereo not drawn)	-0.8%
COCCn1cnc2c1c(=O)n(CC(=O)OCC(=O)NCC(F)(F)F)c(=O)n2Cc1ccccc1	0.7%
O=C(OCC(=O)c1c[nH]c2ccccc12)C1=COCCO1	1.6%
O=c1ccn(Cc2ccccc2)c(=O)n1Cc1ccccc1	14.1%

Next section:
VDR inhibitor	Structure
?	COc1ccc(/C=N/NC(=O)c2[nH]c3ccc(Cl)cc3c2-c2ccccc2)c(C(=O)O)c1OC
3.8%	Cc1ccc(/C=N\NC(=O)c2ccc3c(c2)OCO3)o1
6.7%	COC(=O)CN1C(=O)CSc2ccc(S(=O)(=O)Nc3ccc(Cl)cc3C)cc21
-17.8%	COc1cccc(CNC(=O)CCCn2ccc3cc(S(=O)(=O)N4CCCC4)ccc32)c1
12.7%	COc1ccc(NC(C)=O)cc1NC(=O)CN1CCN(C(=O)c2ccco2)CC1
-16.2%	CCOC(=O)c1ccc(Cn2c(-c3ccccc3)nnc2-c2ccccc2)o1
0.1%	CC(Sc1nnc(COc2ccccc2)n1Cc1ccccc1)C(=O)O (stereo not drawn)
-1.3%	O=C(Nc1nnc(-c2ccccc2Cl)o1)c1nc2ccccc2s1
1.1%	COc1ccc(Br)cc1/C=N/NC(=O)CN1CCN(Cc2ccccc2)CC1
-8.6%	CC(C)CNC(=O)C1c2ccccc2Oc2ccccc21
12.3%	O=C(COC(=O)c1ccccc1SCC(=O)N1CCCC1)Nc1ccccc1C(F)(F)F
7.2%	CC(=O)Cc1cc(O)c2ccccc2c1OC(=O)c1ccccc1
-0.2%	Cc1ccccc1CNC(=O)CN1CCSc2ccccc21
?	Cc1cc(C)c(NC(=O)C(C)N2CCCCCC2)c(C)c1 (stereo not drawn)
?	c1ccc(OCc2nnc3n2N=C(c2ccccc2)CS3)cc1
-2.8%	O=C(COC(=O)[C@H](Cc1ccccc1)NC(=O)c1cccs1)NC1CC1
-10.8%	Cc1ccc(Cn2nnc3c(=O)n(CC(=O)NCc4ccco4)cnc32)cc1
-8.4%	COc1ccc(/C=C2\Oc3cc(OCC(=O)N4CCC[C@H]4C(=O)O)ccc3C2=O)c(OC)c1
-12.8%	CC(=O)NCc1nc2ccccc2n1Cc1ccccc1F
-14.6%	COc1cccc(-c2nc(CS(=O)(=O)CC(=O)NCc3ccccc3OC)c(C)o2)c1
0.2%	O=C1c2oc3ccccc3c(=O)c2C(c2ccccn2)N1Cc1ccccc1 (stereo not drawn)

Some of the compounds tested. The share of hits here may be higher or lower than overall.
